# Assay outcomes: PubChem BioAssay, National Center for Advancing Translational Sciences (NCATS)
# SARS PLP yeast – SARS-CoV PLP inhibition in yeast. actives 0.19% (n = 330,000). S. cerevisiae expressing SARS-CoV PLpro, growth rescue; control for the full effect not named in the record. Potency, µM (series often up to 32.9 µM), for inactives: at the highest dose activity, positive = growth rescue; also: 0% is about no effect; nearly all actives have a fitted effect of over 55% in size; growth read by luminescence after 48 h
# MARV entry inh – blocks Marburg virus binding to or entry into cells | actives 1.8% (n = 300,000) | Marburg virus pseudotyped entry inhibition, cell reporter; control for the full effect not named in the record; about a third of the inactives were read at about 46 µM | AID 540276 | Potency, µM (titrated, usually from 37.8 µM), for the others: at the top dose activity change, negative = inhibition, usual class: inhibitors; active = well fitted inhibition curve with a large enough effect; inconclusive = small, poorly fitted or top-dose-only effect, or effect the other way; inactive = flat fitted curve, though single readings scatter; tested in HEK293 cells; about a fifth of its hits are not listed in these tables; also: % is scaled to controls: 0 for no effect and ±100 for the full control effect; luciferase read-out
# Cruzain inh noDet – inhibitors of Trypanosoma cruzi cruzain without detergent | purified cruzain, Z-FR-AMC fluorescence, no detergent | Potency, µM, for inactives: max response, negative = inhibition, most hits filed as inhibitors | actives 2.3% (n = 200,000); active = well fitted curve in the direction sought with a large enough effect; inconclusive = small, poorly fitted or top-dose-only effect, or another doubt; inactive = no such curve, though single readings can be large; an effect the other way counts as inactive or inconclusive;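 also: plate controls were enzyme without inhibitor for no effect and buffer without enzyme for full effect; nearly all actives have a fitted effect of over 40% in size; top concentration of the series not given in the record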
# Target sequence (P25779 123-467 limits assumed): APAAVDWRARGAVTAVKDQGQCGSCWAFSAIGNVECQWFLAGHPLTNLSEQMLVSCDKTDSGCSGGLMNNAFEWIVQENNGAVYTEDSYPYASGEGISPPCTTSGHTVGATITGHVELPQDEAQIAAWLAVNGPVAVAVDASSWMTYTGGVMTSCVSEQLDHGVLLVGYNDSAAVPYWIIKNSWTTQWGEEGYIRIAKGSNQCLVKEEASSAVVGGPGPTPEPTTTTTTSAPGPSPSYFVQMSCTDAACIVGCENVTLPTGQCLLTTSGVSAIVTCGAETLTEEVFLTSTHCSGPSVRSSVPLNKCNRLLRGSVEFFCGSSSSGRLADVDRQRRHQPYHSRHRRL
#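 Purified cruzain at 1.5 nM, pre-incubated 15 min with compound at room temperature in 100 mM sodium acetate pH 5.5, 5 mM DTT, 0.00005% Triton X-100. Reaction started with 2 uM Z-FR-AMC; AMC fluorescence increase over 60 s gives rate.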
# Cruzain inh Det – cruzain (T. cruzi) inhibition with detergent | purified cruzain, Z-FR-AMC fluorescence, 0.01% Triton | Potency, µM, inactives show max response, negative = inhibition, hits mostly inhibitors | actives 0.43% (n = 200,000); active = well fitted curve in the direction sought with a large enough effect; inconclusive = small, poorly fitted or top-dose-only effect, or another doubt; inactive = no such curve, though single readings can be large; an effect the other way counts as inactive or inconclusive;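 also: plate controls were neutral wells for no effect and buffer without enzyme for full effect; nearly all actives have a fitted effect of over 40% in size; top concentration of the series not given in the record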
#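 Purified cruzain (1.5 nM final) was preincubated with compounds for 15 min at room temperature in 100 mM sodium acetate pH 5.5, 5 mM DTT, 0.01% Triton X-100. Reaction started with 2 uM Z-FR-AMC; AMC fluorescence change over 60 s gave activity.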
# RE007 growth inh – less growth of the S. pombe RE007 Vpr strain | S. pombe RE007 Vpr strain, BacTiter-Glo ATP luminescence, 24 h; control for the full effect not named in the record | actives 0.21% (n = 360,000) | Potency, µM (highest dose often 92.2 µM), for inactives: top-dose activity change, negative = less growth; active = well fitted falling curve with a large enough effect; inconclusive = small, poorly fitted or top-dose-only effect; inactive = no such curve, though single readings can be large or run the other way;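 also: % is scaled to controls: 0 for no effect and ±100 for the full control effect; nearly all actives have a fitted effect of over 50% in size; the assay follows cell death caused by Vpr and the record does not say whether a fall means rescue or toxicity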
#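 Fission yeast RE007 carrying one integrated HIV-1 vpr copy, seeded at OD 0.01 in PMG+AL medium with 23 nL pinned compound. Grown 24 h at 30 degrees; viability read by BacTiter-Glo luminescence after 5 min.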
# NS1 function inh – inhibitors of influenza NS1 protein function | S. cerevisiae slowed by influenza A NS1, growth recovery by OD600 | Potency, µM (top dose mostly 46.1 µM), for inactives: at the highest dose activity, positive = more growth | actives 0.4% (n = 270,000); also: actives are rising curves; nearly all actives have a fitted effect of over 50% in size
#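 Read-out: OD600 growth recovery of NS1-expressing budding yeast. Cells grown overnight at 30C in -URA glucose medium, washed, resuspended and diluted 1:100 in 2% galactose assay medium, pH 6.0. Same strain lacking NS1 served as positive control.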
# Lassa entry inh – blocks Lassa virus binding to or entry into cells | actives 1.2% (n = 300,000) | AID 540256 | Potency, µM (titrated, usually from 37.9 µM), for the others: at the top dose activity change, negative = inhibition, actives largely listed as inhibitors | Lassa virus pseudotype entry inhibition, cell reporter; control for the full effect not named in the record; active means well fitted inhibition curve with a large enough effect; inconclusive means small, poorly fitted or top-dose-only effect, or effect the other way; inactive means flat fitted curve, though single readings scatter; tested in HEK293 cells; also: % is scaled to controls: 0 for no effect and ±100 for the full control effect; nearly all actives have a fitted effect of over 50% in size; luciferase read-out
# 2A StopGo – FMDV 2A StopGo reporter, luciferase signal. actives 1.2% (n = 410,000). Potency, µM (highest dose often 57.9 µM), without a hit: at the highest dose signal change, negative = less light. AID 1159524. human cells with a luciferase reporter of 2A StopGo recoding; control for the full effect not named in the record; active = well fitted falling curve with a large enough effect; inconclusive = small, poorly fitted or top-dose-only effect; inactive = no such curve, though single readings can be large or run the other way; tested in HEK293T cells; also: % is scaled to controls: 0 for no effect and ±100 for the full control effect; nearly all actives have a fitted effect of over 45% in size; luciferase light after 4 h
# Starred values were filed as active, the others as inactive; ? = inconclusive; . = not tested or not shown; & = joins results of further samples; [ ] = another dose, or the depositor's remark. Unless noted, calls follow the shape of the dose curve; as a rule, active means well fitted rising curve with a large enough effect; inconclusive means small, poorly fitted or top-dose-only effect; inactive means no such curve, though single readings can be large or run the other way. Potency is read from the fitted curve at half-maximal effect. Not a hit list (roughly 4.8% active in at least one column).
SMILES,SARS PLP yeast,MARV entry inh,Cruzain inh noDet,Cruzain inh Det,RE007 growth inh,NS1 function inh,Lassa entry inh,2A StopGo
C=CCn1nc(-c2ccccc2)c(N2CCCCC2)cc1=O,-2%,?,.,.,1%,.,-29%[46.1 µM],-26%
CCc1cccc(CC)c1NC(=O)Cn1c(=O)c(-c2cc(C)ccc2NC(C)=O)nc2ccccc21,.,5%[46.1 µM],-6%,-3.3%,.,.,-2%[46.1 µM],-10%
Cc1cc2cc3c(cc2nc1SCC(=O)OC(C)C)OCCO3,16%,?,-2%,-4.0%,-21%,7%,-20%,-3%
COc1ccc2c(C)cc3n[nH]c(=S)n3c2c1,-2%,.,.,.,3%,1%,.,3%
CCn1c(SCC(=O)NCCc2ccccc2)nc2c([nH]c3ccccc32)c1=O,-1%,.,.,.,-20%,7%,.,5%
COC(=O)c1nc(NNC(=O)c2ccccc2)sc1-c1ccccc1,-1%,-2%[46.1 µM],.,.,15%,8%,17%[46.1 µM],22%
CCOc1ccc2oc(C(=O)OCC(=O)N3CCCC(C)C3)c(C)c2c1 (stereo not drawn),3%,-14%,.,.,28%,.,?,?
COc1cc(CN2CCN(c3cc(C)ccc3C)CC2)cc([N+](=O)[O-])c1O,.,2%,.,.,0%,.,3%,-12%
COc1ccc(OC)c(NC(=O)CSc2ncnc3sc(C)cc23)c1,.,?,.,.,-3%,.,-16%,8%
Cn1c(-c2cc(Cl)ccc2O)nc2c1c(=O)[nH]c(=O)n2Cc1ccccc1,0%,2µM*,.,.,7%,.,?,?
O=C(Nc1ccccc1C(=O)Nc1ccc2c(c1)OCO2)c1cccs1,-10%,-24%[46.1 µM],-19%,-0.8%,0%,-2%,?,3%
CCCc1nn2c(N)c(/C=C3\C=Nc4ccccc43)c(=O)nc2s1,-2%&-30%,7%&0%,?,-7.0%,-16%&-9%,8%&10%,-11%&-6%,-5%&-4%
Cc1cc(C)cc(NC(=O)OCCN2CCN(Cc3ccccc3)CCC2=O)c1,-16%,6%,?,-0.6%&0.8%,-16%,-35%,19%,-3%
O=C(C1CCN(S(=O)(=O)N2CCC3(CC2)OCCO3)CC1)N1CCN(Cc2ccccc2)CC1,-2%,-1%&14%,-3%,4.5%,3%,-4%,10%,.
CCCCOC(=O)c1cc(C)nc2ccc(Br)cc12,-2%,27%,?,2.9%,-14%,-2%,-7%,.
Cc1ccc(CSCC(=O)NCCc2ccccc2)cc1,-4%,8%[46.1 µM],.,.,-6%,.,?,9%
CCOc1ccc(NC(=O)CC2C(=O)N(c3ccccc3)C(=O)N2CCc2ccc(OC)cc2)cc1 (stereo not drawn),.,?,-4%,-3.1%,.,.,?,12%
Nc1cccc(Nc2nc(OC(C(F)(F)F)C(F)(F)F)nc(OC(C(F)(F)F)C(F)(F)F)n2)c1,-8%,?,6%,-15%,2%,-38%,?,-24%
Oc1ccc(Br)cc1/C=N/n1c(COc2ccccc2)n[nH]c1=S,-5%,.,.,.,3%,3%,.,-19%
Cc1ccc(S(=O)(=O)c2nc(S(=O)(=O)c3ccc(C)cc3)c(NC(C)C)s2)cc1,.,?,3%,-1.0%,.,.,?,10%
CCC(=O)N1CCc2cc(CNS(=O)(=O)c3cccs3)ccc21,.,.,-11%,1.2%,.,.,25%[46.1 µM],30%
COc1ccc(/C=C(\C#N)C(=O)OCC(=O)NCc2ccccc2OC)cc1,-13%,-5%,.,.,-22%,.,-2%,18%
Cc1ccsc1C(=O)OCc1cc(=O)n2ccsc2n1,2%,-20%,.,.,2%,.,?,-8%
O=C(c1ccc2c(c1)ncn2C1CCCCCC1)N1CCC2(CC1)OCCO2,5%,-17%,0%,0.5%,2%,-12%,?,23%
CC1=C(C(=O)N2CCCCC2)C(c2cccs2)C2=C(CCCC2=O)N1 (stereo not drawn),?,-9%,-5%,-2.3%,1%,-1%,6%,7%
# (next part)
SMILES,SARS PLP yeast,MARV entry inh,Cruzain inh noDet,Cruzain inh Det,RE007 growth inh,NS1 function inh,Lassa entry inh,2A StopGo
CCOc1ccc2nc(N(Cc3cccnc3)C(=O)C3CCCCC3)sc2c1,.,.,17%,-5.1%,.,.,25%[46.1 µM],-2%
COC(CNC(=O)c1ccc2c(c1)nc(C)n2-c1cc(C)cc(C)c1)OC,1%,.,.,.,2%,-6%,.,3%
N#Cc1ccccc1Cn1c(SCC(=O)Nc2ccc(F)cc2)nc2ccccc21,.,.,?,-6.8%,.,.,?,-26%
CCCCC(=O)Nc1ccc(C(=O)N2CCN(c3ccccc3OC)CC2)cc1,2%,-6%,?,8.7%,3%,-20%,15%,-13%
S=C(NCc1ccncc1)Nc1ccccc1,0%,.,.,.,8%,10%,.,13%
CCCNC(=O)c1ccc(N2CCC3(CC2)CC(c2ccccc2)=NO3)c(NC(=O)Cc2ccc(F)cc2)c1,-1%,.,.,.,10%,?,.,-27%
CCOC(=O)c1c(Cc2cccc(Cl)c2)c[nH]c1C,-60%,2%[46.1 µM],-4%,-14%,-5%,-39%,-4%[46.1 µM],-2%
CCn1c(=O)[nH]c2cc(Cl)c(Cl)cc21,.,?,-9%&3%,-4.7%&-6.2%,-7%[18.4 µM],-40%,-6%,-24%&-10%
Nc1c(C(=O)O)sc2nc(-c3ccccc3)cc(-c3ccc(Cl)cc3)c12,0%,?,.,.,4%,5%,11%[46.1 µM],0%
CON/C=N/C(=S)Nc1ncc(C(F)(F)F)cc1Cl,1%,?,.,.,?,.,3%[46.1 µM],-5%
Cn1c(O)c(C=NC2CC3CCC2(C)C3(C)C)c(=O)[nH]c1=O (stereo not drawn),0%,3%[46.1 µM],4%,0.0%,22%,-1%,-14%,-22%
CCOC(=O)C1CCN(C(c2ccc(OC)c(OC)c2)c2sc3nc(C)nn3c2O)CC1 (stereo not drawn),3%,-19%&-19%,12%,-0.6%,-5%,-20%,-10%,0%
CN(CC(=O)Nc1nc2ccccc2s1)S(=O)(=O)c1ccc(Br)cc1,4%,-12%,-12%,-8.4%,-9%,0%,-14%[14.3 µM],35µM*
CCCn1nnnc1NCc1ccc(N2CCCC2)cc1,-7%,0%,7%,1.6%,19%,21%,-30%,-3%
Cc1onc(-c2ccccc2)c1C(=O)Nc1ccon1,8%,-2%,0%,-3.1%,2%,9%,-7%,0%
O=C(COc1ccccc1F)NCC(c1ccco1)N1CCCC1 (stereo not drawn),0%,-27%[46.1 µM],.,.,3%,.,5%,0%
N#C/C(=C\Nc1ccc2c(c1)OCCO2)c1nc(-c2ccccc2)cs1,-9%,-10%,?,-3.3%,0%,9%,-6%,?
COCCCNC(=O)C[C@H]1C[C@H](C(=O)N2CCCCC2)[C@@]2(CCc3ccccc3)c3[nH]c4ccc(Cl)cc4c3CCN2C1=O,0%,0%,.,.,0%,.,.,40µM*
CCOC(=O)c1ccc(NC(=O)C2=C(C)Nc3nc(CCCO)nn3C2c2cccc(C)c2)cc1 (stereo not drawn),-2%,.,?,0.9%,-4%,1%,.,-21%
CCc1ccc(-c2cc(N)n(-c3ccccc3)n2)cc1,-5%,-17%[46.1 µM],.,.,3%,.,20%[46.1 µM],0%
CCCCc1ccc(-c2c(C#N)c(N)nc3c2CCCC3)s1,1%,19%,25µM*,5.2%,4%,3%,-1%,-23%
O=C(c1cc2cccc([N+](=O)[O-])c2oc1=O)N1CCOCC1,0%,.,.,.,3%,8%,.,-9%
Cc1cccc(N2C(=O)C=CC2=O)c1,.,?,.,.,8.9µM*,.,-24%[46.1 µM],-23%
CCC(=O)Nc1ccc(Cl)c(NC(=O)c2cccc(OC)c2)c1,0%,-11%[46.1 µM],.,.,1%,2%,-6%[46.1 µM],6%
CCOC(=O)c1ccccc1NC(=O)C(=O)Nc1ccc2nc3n(c(=O)c2c1)CCCCC3,.,7%[46.1 µM],-4%,1.5%,.,.,8%[46.1 µM],-28%
# Other entries
SMILES,SARS PLP yeast,MARV entry inh,Cruzain inh noDet,Cruzain inh Det,RE007 growth inh,NS1 function inh,Lassa entry inh,2A StopGo
O=C(CSC(=S)N1CCCC1)N1CCN(S(=O)(=O)c2ccccc2F)CC1,0%,16%,.,.,3%,.,-20%,-23%
Cc1c(/C(O)=C2/C(=O)C(=O)N(CCN3CCOCC3)C2c2cccnc2)cnn1-c1ccccc1 (stereo not drawn),6%,0%&0%,-2%,-13%,-3%,4%,12%,-2%
Cc1csc(Sc2ccc([N+](=O)[O-])cc2C(=O)OCC(=O)NC(=O)NC(C)(C)C)n1,6%,-25%,-1%,-6.3%,7%,7%,-13%,?
COC(=O)c1cn(-c2cccc(C)n2)cn1,1%,-4%[46.1 µM],.,.,0%,2%,24%[46.1 µM],-2%
O=C(NC(=S)NCCC1=CCCCC1)c1ccccc1Br,-2%,?,.,.,-14%,16%,?,2%
COC(=O)C1CSC(C(=O)OC)N1C(=O)CN1CC(C)OC(C)C1 (stereo not drawn),-1%,3%,-1%,0.9%,17%,-4%,7%,13%
O=C(NCCC1CCCCN1S(=O)(=O)c1cccs1)C(=O)Nc1cccc(F)c1 (stereo not drawn),1%,-6%,.,.,-14%,.,?,-13%
CCOC(=O)C1=C2NC(=O)c3ccccc3N2C(=O)C1,-1%,29%[46.1 µM],.,.,-3%,.,14%,0%
CCOc1ccc(NC(=O)Cn2nc(Cc3cccnc3)c3ccccc3c2=O)cc1,.,7%[46.1 µM],-8%,-1.4%,.,.,14%[46.1 µM],-19%
Cn1c(N)c(C(=O)c2cc(-c3ccncc3)nc3ccccc23)c(=O)n(C)c1=O,-1%,-2%,.,.,-1%,.,0%,24%
O=c1[nH]c(=S)n(Cc2ccc(F)cc2)c(O)c1/C=N/N1CCCCCC1,-4%,?,-22%,?,2%,16%,-5%,-18%
O=C(O)CCc1nnc(SCC(=O)Nc2ccc(Br)cc2)[nH]c1=O,0%,9%[46.1 µM],.,.,1%,.,-13%[46.1 µM],-1%
CCOC(=O)c1c(C)n(C)c2ccc(OC)c(NC(=O)CN3CCN(Cc4ccccc4)CC3)c12,4%,4%&4%&4%,11%,3.9%,-1%,-4%,0%,-8%
COc1cccc(CNC(=O)c2cc3c(s2)-c2ccccc2OC3)c1,.,?,?,5.9%,.,.,.,2%
